# Bioassay records as filed in PubChem BioAssay.
# MITF inhib: MITF inhibition; TRPM1 promoter luciferase, luminescence, 24 h; 37,000 compounds, 0.28% hits; AID 2240; inhibition, % (concentration not given with the values);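 active = most replicates at 85% or more, or half of them and the mean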;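 also: human melanocyte line stably carrying TRPM1 promoter luciferase reporter; 0% = vehicle wells and 100% = a positive control; the first replicate is given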
# YB-1 expr inh: YB-1 expression inhibition. delta delta Cp (YB-1 minus CDIP) (no concentration beside the values). U2OS, qRT-PCR YB-1 vs CDIP delta delta Cp, 16 h; hits give high values; zero = DMSO, each unit about twofold. 30,000 compounds, 0.37% hits;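 active = delta delta Cp rounded down to an integer at or above 3, about 3 SD of DMSO wells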;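 also: higher means less YB-1 transcript or more CDIP transcript relative to DMSO; stock transfer was 100 nL into about 100 µL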
# PD-1 reverse act: reversal of PD-1 mediated T-cell inhibition. primary human CD4 T cells, PD-L1 beads, CellTiter-Glo 96 h. activation, % (no concentration beside the values). 29,000 tested, under 10 active. AID 2316;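 active = replicate mean of 50% or more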;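 also: 0% = median vehicle wells and 100% = positive control; 100 nL library stock added to about 50 µL; numbers are from one replicate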
# Hedgehog inh: blocks Sonic Hedgehog signaling | Shh-LIGHT2 Gli-luciferase reporter, 30 h | inhibition, % (test concentration not listed) | 22,000 compounds, 2.1% hits;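 active = replicate mean of 65% or more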;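 also: pathway switched on by Shh-conditioned medium diluted 1 in 25 in low serum; 100 nL library stock added to about 40 µL; 0% = median of neutral wells and 100% = positive control level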
# * = called active by the depositor; x = no result given. A portion of the library, so the mix of outcomes need not match the whole.
smiles	MITF inhib	YB-1 expr inh	PD-1 reverse act	Hedgehog inh
Cc1ccc(S(=O)(=O)Nc2ccc3c(c2)CC(=O)N([C@@H](C)CO)C[C@H](C)[C@@H](CN(C)Cc2ccc(C(=O)Nc4ccccc4N)cc2)O3)cc1	12	-0.11	1.3	x
Nc1ncnc(NCCN2CCOCC2)c1[N+](=O)[O-]	-52	x	1.5	x
C[C@@H]1CCCCO[C@H](CN(C)C(=O)Cc2ccccc2)[C@@H](C)CN([C@H](C)CO)C(=O)c2cc(NC(=O)Nc3ccc(F)cc3)ccc2O1	-1	1.1	x	x
N#CC(C#N)=C(N)/C(C#N)=C/c1cc(O)c(O)c(O)c1	-9	0.1	-0.7	76*
CC(C)Oc1ccccc1-c1nc(SCC(N)=O)n[nH]1	-16	x	2.6	x
C[C@H](CO)N1C[C@H](C)[C@@H](CN(C)Cc2ccc(Oc3ccccc3)cc2)Oc2ccc(NC(=O)CCCN(C)C)cc2C1=O	3	0.31	x	19
C[C@H](CO)N1C[C@H](C)[C@@H](CN(C)S(=O)(=O)c2cn(C)cn2)Oc2ccc(NC(=O)Nc3ccc(F)cc3)cc2C1=O	-6	-0.2	2.2	-8
CCn1c(SCC(=O)N2CCc3ccccc32)nnc1-c1c[nH]c2ccccc12	16	x	-1.0	x
Cc1c(NC(=O)C(C)(C)C)c(=O)n(-c2ccccc2)n1C	2	-0.46	-0.3	x
COc1ccc(S(=O)(=O)Nc2ccc3c(c2)C(=O)N([C@@H](C)CO)C[C@@H](C)[C@@H](CN(C)Cc2ccc(Oc4ccccc4)cc2)O3)cc1	60	2.4	x	x
C[C@H](CO)N1C[C@H](C)[C@@H](CN(C)Cc2ccc(Oc3ccccc3)cc2)Oc2c(NC(=O)C3CCOCC3)cccc2C1=O	24	0.55	x	49
O=c1cc(-c2ccc(O)c(O)c2)c2c(O[C@@H]3O[C@H](CO)[C@@H](O)[C@H](O)[C@H]3O)cc(O)cc2o1	12	0.2	0.1	-5
CC(C)NC(=O)Nc1ccc2c(c1)CC(=O)N([C@H](C)CO)C[C@H](C)[C@H](CN(C)C(=O)NC1CCCCC1)O2	-4	-0.23	4.2	-26
C[C@H](CO)N1C[C@H](C)[C@H](CN(C)C(=O)Nc2ccccc2)Oc2ccc(NC(=O)Cc3ccccc3)cc2C1=O	2	0.031	x	x
CN1Cc2cc3c(cc2CCC(=O)c2cc4c(cc2C1)OCO4)OCO3	5	-0.31	1.6	-6
CC(=O)CCCCCCCc1[nH]c2ccccc2c(=O)c1O[C@@H]1O[C@H](CO)[C@@H](O)[C@H](O)[C@H]1O	x	0.47	x	-15
C[C@@H]1CN([C@@H](C)CO)C(=O)c2cccc(NS(=O)(=O)c3cn(C)cn3)c2O[C@@H]1CN(C)CC1CC1	-9	2.4	1.5	-156
CC(C)NC(=O)N(C)C[C@@H]1Oc2ccc(NC(=O)Cn3cnnn3)cc2C(=O)N([C@@H](C)CO)C[C@H]1C	-11	0.17	-0.3	x
C[C@@H]1CN([C@H](C)CO)C(=O)c2cc(NS(=O)(=O)c3ccccc3)ccc2O[C@@H]1CN(C)S(=O)(=O)c1ccc(Cl)cc1	1	0.32	-0.7	31
CC(C)NC(=O)Nc1ccc2c(c1)CC(=O)N([C@H](C)CO)C[C@H](C)[C@H](CN(C)S(=O)(=O)c1ccccc1)O2	0	0.44	x	22
COc1ccc(S(=O)(=O)Nc2ccc3c(c2)C(=O)N([C@H](C)CO)C[C@H](C)[C@H](CN(C)S(=O)(=O)c2ccc(OC)cc2)OCCCC[C@@H](C)O3)cc1	22	-0.21	0.1	x
C[C@@H]1CN([C@@H](C)CO)C(=O)c2cc(NC(=O)Nc3cccc4ccccc34)ccc2O[C@@H]1CN(C)Cc1ccc(C(=O)Nc2ccccc2N)cc1	8	-0.46	-2.2	x
C[C@@H]1CN([C@H](C)CO)C(=O)Cc2cc(NC(=O)C3CCCCC3)ccc2O[C@@H]1CN(C)Cc1ccc(C(F)(F)F)cc1	5	-0.019	-3.1	13
Cc1ccc(-c2nnc3c4ccccc4c(C)nn23)cc1S(N)(=O)=O	4	x	-1.6	x
C[C@H](CO)N1C[C@H](C)[C@@H](CN(C)Cc2ccc(C(=O)Nc3ccccc3N)cc2)Oc2c(NC(=O)c3ccncc3)cccc2C1=O	19	-0.047	-0.1	x
Cc1ccccc1S(=O)c1ccccc1C(=O)O (centres undefined)	-7	-0.18	1.4	8
CNC[C@@H]1Oc2c(NC(=O)c3nc4ccccc4s3)cccc2C(=O)N([C@H](C)CO)C[C@H]1C	2	0.087	1.0	-8
C[C@@H]1CN([C@H](C)CO)C(=O)c2cc(NS(=O)(=O)c3ccccc3)ccc2O[C@@H]1CN(C)S(C)(=O)=O	8	0.059	-0.7	x
COc1ccc(NC(=O)Nc2ccc3c(c2)CC(=O)N([C@H](C)CO)C[C@@H](C)[C@H](CN(C)S(=O)(=O)c2ccc(C)cc2)O3)cc1	2	0.19	-0.2	-10
C[C@H]1CN([C@@H](C)CO)C(=O)c2cc(NC(=O)CCC(F)(F)F)ccc2O[C@@H]1CN(C)Cc1ccc(C(=O)O)cc1	-6	-0.37	0.6	-26
COc1ccc(OC)c(NC(=O)COc2ccc(C(=O)Nc3ccc(C)cc3)cc2)c1	-27	x	0.7	x
C[C@H]1CN([C@@H](C)CO)C(=O)c2cc(NC(=O)CCC(F)(F)F)ccc2O[C@H]1CN(C)C(=O)Nc1cccc2ccccc12	-10	0.3	4.7	x
COc1ccc(-n2nc3cc(C)c(NC(=S)NC(=O)COc4cccc(C)c4)cc3n2)cc1Cl	8	x	-4.0	x
CCNC(=S)N1N=C2c3ccccc3CCC2C1c1ccc(F)cc1 (centres undefined)	6	0.34	-1.2	x
COc1ccc(NC(=O)Cn2cnc3sc(-c4ccccc4)cc3c2=O)cc1	6	x	0.1	x
C[C@@H]1CN([C@H](C)CO)C(=O)c2cc(NC(=O)C3CCCCC3)ccc2O[C@@H]1CN(C)C(=O)NC1CCCCC1	5	-0.32	-1.0	-16
CC(C)NC(=O)Nc1cccc2c1O[C@H](CN(C)C(=O)Nc1ccc3c(c1)OCO3)[C@H](C)CN([C@H](C)CO)C2=O	-1	0.15	x	-24
C[C@H](CO)N1C[C@H](C)[C@H](CN(C)C(=O)Nc2ccc(C(F)(F)F)cc2)Oc2ccc(NC(=O)CCC(F)(F)F)cc2CC1=O	-7	-0.42	x	-6
CNC[C@@H]1Oc2c(N)cccc2C(=O)N([C@@H](C)CO)C[C@H]1C	8	0.2	1.6	-66
CCn1c(Cn2nnc3ccccc32)nnc1SCC(=O)c1ccc(Br)cc1	1	0.087	1.1	6
COc1cccc2cc(-c3nnc(SCC(=O)c4ccccc4)n3C)oc12	-9	x	-0.7	x
O=c1c(-c2c(O)cc(O)c3c(=O)cc(-c4ccc(O)cc4)oc23)c(-c2ccc(O)cc2)oc2cc(O)cc(O)c12	-4	-0.23	0.4	-25
C[C@H](CO)N1C[C@H](C)[C@H](CN(C)S(C)(=O)=O)Oc2ccc(NC(=O)Nc3cccc4ccccc34)cc2CC1=O	-3	0.18	x	-21
COC(=O)c1c2ccccc2c(C)c2ccccc12	1	-1.2	1.9	49
COc1ccc([N+](=O)[O-])cc1NC(=O)c1ccccc1OCC(=O)Nc1cccc(C)c1	10	x	-2.7	x
C[C@H](CO)N1C[C@H](C)[C@H](CN(C)C(=O)Nc2ccccc2)Oc2ccc(NC(=O)Cc3cn(C)c4ccccc34)cc2CC1=O	-9	0.26	1.3	-5
Cc1ccc(S(=O)(=O)N(C)C[C@H]2Oc3ccc(NC(=O)Nc4ccc(C(F)(F)F)cc4)cc3CC(=O)N([C@@H](C)CO)C[C@H]2C)cc1	61	0.4	-4.2	12
COc1ccc(S(=O)(=O)Nc2ccc3c(c2)C(=O)N([C@@H](C)CO)C[C@H](C)[C@@H](CN(C)S(=O)(=O)c2ccc(OC)cc2)O3)cc1	-8	0.04	0.4	-22
C[C@@H]1CN([C@@H](C)CO)C(=O)c2cccc(NC(=O)CCCCCC(=O)Nc3ccccc3N)c2O[C@@H]1CN(C)C(=O)Nc1ccccc1	-28	-0.26	0.0	x
C[C@H](CO)N1C[C@H](C)[C@@H](CN(C)C(=O)Nc2ccc(C(F)(F)F)cc2)Oc2ccc(NC(=O)Nc3ccccc3)cc2C1=O	-1	0.17	x	-31
COc1ccc(-n2c(CCn3c4ccccc4c4ccccc43)n[nH]c2=S)cc1	2	x	-5.5	x
Cc1ccc(S(=O)(=O)N(C)CC(=O)Nc2ccc(C#N)cc2)cc1	13	x	2.5	x
C[C@@H]1CN([C@@H](C)CO)C(=O)Cc2cc(NC(=O)C3CC3)ccc2O[C@@H]1CN(C)C(=O)Nc1ccc(F)cc1	-5	-0.31	1.1	-12
Cc1ccc(N(CCCCN2C(=O)c3ccccc3C2=O)C(=O)c2cccc(Cl)c2)cc1	-13	-0.64	-0.5	x
COc1cccc(OCCSc2nc(N)cc(N)n2)c1	9	x	-0.8	x
O=C(O)c1cc(NC(=O)C2CCCO2)cc(NC(=O)C2CCCO2)c1 (centres undefined)	-13	x	3.3	x
COc1ccccc1C(=O)N1CCN(c2ccc([N+](=O)[O-])c(NCc3ccco3)c2)CC1	28	x	-3.7	x
C[C@@H]1CN([C@H](C)CO)C(=O)c2cc(NS(=O)(=O)c3ccc(Cl)cc3)ccc2O[C@H]1CN(C)C	0	-0.4	1.8	-3
C[C@H](CO)N1C[C@H](C)[C@H](CN(C)CC2CC2)Oc2ccc(NS(C)(=O)=O)cc2CC1=O	-3	0.37	x	26
COc1ccc(NC(=O)COc2cc(C)ccc2C)cc1NC(=O)c1ccco1	-5	x	-2.1	x

# The list continues.
smiles	MITF inhib	YB-1 expr inh	PD-1 reverse act	Hedgehog inh
C[C@@H]1CN([C@H](C)CO)C(=O)c2cccc(NC(=O)Nc3ccc(F)cc3)c2O[C@H]1CN(C)CC1CCCCC1	33	0.1	-6.3	15
COc1ccc(S(=O)(=O)Nc2cccc3c2O[C@@H](CN(C)C(=O)Nc2cccc4ccccc24)[C@@H](C)CN([C@@H](C)CO)C3=O)cc1	2	0.43	-0.7	-2
CC(=O)c1cccc(NC(=O)CSc2nnc3c(n2)[nH]c2ccccc23)c1	55	x	-2.3	x
CCSc1nccc(-c2ccc3c(c2)CCC(C)(C)O3)n1	46	-0.36	0.2	78*
COc1ccc(S(=O)(=O)N(CC(N)=O)C2CCCCC2)cc1Cl	-3	x	0.0	x
COc1ccc(NC(=O)Nc2ccc3c(c2)C(=O)N([C@@H](C)CO)C[C@@H](C)[C@@H](CN(C)S(=O)(=O)c2ccc(Cl)cc2)O3)cc1	6	0.085	-1.2	10
COc1ccc(NC(=O)N(C)C[C@@H]2Oc3ccc(NS(=O)(=O)c4ccc(F)cc4)cc3CC(=O)N([C@@H](C)CO)C[C@@H]2C)cc1	8	0.074	0.6	x
Cc1cc(C(=O)Nc2cccc3c2O[C@H](CN(C)S(=O)(=O)c2cn(C)cn2)[C@@H](C)CN([C@@H](C)CO)C3=O)n(C)n1	-5	-0.029	0.2	16
C[C@H](CO)N1C[C@H](C)[C@H](CN(C)Cc2ccc(Oc3ccccc3)cc2)Oc2ccc(NC(=O)Nc3ccc4c(c3)OCO4)cc2CC1=O	16	-0.11	-0.4	8
Cc1noc(C)c1NC(=O)N(C)C[C@@H]1Oc2ccc(NS(=O)(=O)c3ccc(F)cc3)cc2CC(=O)N([C@H](C)CO)C[C@H]1C	8	0.19	x	-6
C[C@H]1CN([C@@H](C)CO)C(=O)c2cccc(NC(=O)Nc3ccc(F)cc3)c2O[C@@H]1CN(C)S(=O)(=O)c1cccs1	-21	-0.5	x	-62
COc1ccc(NC(=O)Nc2ccc3c(c2)CC(=O)N([C@@H](C)CO)C[C@@H](C)[C@@H](CN(C)S(=O)(=O)c2ccccc2)O3)cc1	-14	-0.28	1.3	0
CCCc1cc(=O)n2[nH]c(NCc3ccccc3OC)nc2n1	12	x	0.8	x
COc1ccc(C(=O)COc2cccc(NC(=O)c3ccccc3C)c2)cc1	12	x	0.3	x

# Five structures from above, arranged by molar mass, highest first.
smiles	MITF inhib	YB-1 expr inh	PD-1 reverse act	Hedgehog inh
COc1ccc(NC(=O)Nc2ccc3c(c2)C(=O)N([C@@H](C)CO)C[C@@H](C)[C@@H](CN(C)S(=O)(=O)c2ccc(Cl)cc2)O3)cc1	6	0.085	-1.2	10
COc1ccc(NC(=O)N(C)C[C@@H]2Oc3ccc(NS(=O)(=O)c4ccc(F)cc4)cc3CC(=O)N([C@@H](C)CO)C[C@@H]2C)cc1	8	0.074	0.6	x
Cc1cc(C(=O)Nc2cccc3c2O[C@H](CN(C)S(=O)(=O)c2cn(C)cn2)[C@@H](C)CN([C@@H](C)CO)C3=O)n(C)n1	-5	-0.029	0.2	16
COc1ccc(C(=O)COc2cccc(NC(=O)c3ccccc3C)c2)cc1	12	x	0.3	x
CCCc1cc(=O)n2[nH]c(NCc3ccccc3OC)nc2n1	12	x	0.8	x
